ID4 binder: binds human ID4 protein on microarray. small molecule microarray, Flag-ID4 binding, fluorescence F/B. calls only. actives 1.2% (n = 31,000). AID 624137;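 active = spot signal over background at p below 0.07 in all four prints; compounds were printed on slides so no solution concentration is given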;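 note: a binder raises fluorescence above local background on the spot; about 2 pmol printed per array spot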
Target sequence (P47928 whole entry, looked up): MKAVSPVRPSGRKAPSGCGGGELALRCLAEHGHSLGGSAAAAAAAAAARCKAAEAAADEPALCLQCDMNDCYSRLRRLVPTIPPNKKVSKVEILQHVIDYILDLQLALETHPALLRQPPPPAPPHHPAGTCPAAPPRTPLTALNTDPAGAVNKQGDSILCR
Calls only; i = inactive; + = active, no number. Some of the compounds tested (hit frequency here may not be typical).

SMILES | ID4 binder
COc1ccc(N(C(C)C(=O)Nc2ccccc2Cl)S(C)(=O)=O)cc1 (stereo not drawn) | i
COc1ccccc1NC(=O)CCC(=O)O | i
CCCC#Cc1cnc2c(c1)C(=O)N([C@H](C)CO)C[C@@H](C)[C@H](CN(C)C(=O)Cc1ccccc1)O2 | i
COCC(=O)Nc1ccc2c(c1)OC[C@@H](C)N(CC1CC1)C[C@@H](C)[C@H](OC)CN(C)C2=O | i
COC(=O)c1ccccc1NC(=O)CN(c1ccc2c(c1)OCCO2)S(C)(=O)=O | i
CC(C)(C)NC(=O)c1ccccc1SCc1ccc(F)cc1 | i
C[C@@H]1CN([C@H](C)CO)C(=O)c2cc(Br)cnc2O[C@H]1CN(C)C(=O)c1ccccc1 | i
O=C(CC(C(=O)O)N1CCNCC1)Nc1cccc(Cl)c1 (stereo not drawn) | i
CCCN(C)C[C@H]1Oc2cc(-c3cccc(OC)c3)ccc2S(=O)(=O)N([C@@H](C)CO)C[C@H]1C | i
Cc1cc(=O)[nH]c(SCC(=O)c2cc(C(C)(C)C)c(O)c(C(C)(C)C)c2)n1 | i
C[C@@H]1CN([C@@H](C)CO)C(=O)c2cc(-c3ccccc3F)cnc2O[C@@H]1CN(C)Cc1ccc(F)cc1 | i
O=S(=O)(c1ccc(Cl)cc1)c1nc(-c2ccc(F)cc2)oc1NCc1cccnc1 | i
Cc1ccc([N+](=O)[O-])cc1NC(=O)CN(C)S(=O)(=O)c1cc(Cl)ccc1Cl | i
CCCN(C)C[C@@H]1OCc2cnnn2CCCC(=O)N([C@@H](C)CO)C[C@H]1C | i
O=C(CSc1nnc(-c2cccs2)n1-c1ccccc1)N1CCCc2ccccc21 | i
CC(=O)Oc1cc2c(C(=O)N3CCCC3)c(C)oc2c2ccccc12 | i
CC(C)CC#Cc1cnc2c(c1)C(=O)N([C@H](C)CO)C[C@H](C)[C@H](CN(C)CC1CCOCC1)O2 | i
CCC(=O)N(C)C[C@H]1Oc2cc(C#C[C@H](C)O)ccc2S(=O)(=O)N([C@@H](C)CO)C[C@H]1C | i
O=C(C[C@@H]1C=C[C@H](NC(=O)C2CC2)[C@H](CO)O1)NCc1ccccc1Cl | i
Cc1cc(-c2ccccc2)nc(SCC(=O)Nc2cccc(C(F)(F)F)c2)n1 | i

For convenience, 2 of the compounds above:
SMILES | ID4 binder
C[C@@H]1CN([C@@H](C)CO)C(=O)c2cc(-c3ccccc3F)cnc2O[C@@H]1CN(C)Cc1ccc(F)cc1 | i
O=S(=O)(c1ccc(Cl)cc1)c1nc(-c2ccc(F)cc2)oc1NCc1cccnc1 | i

(continued)
SMILES | ID4 binder
CCc1ccc(-c2cn3c4ccccc4nc3n2CCN2CCOCC2)cc1 | i
C[C@H](NC(=O)C[C@H]1C=C[C@@H](NC(=O)Cc2ccccn2)[C@@H](CO)O1)c1ccccc1 | i
O=C(NCc1ccco1)c1n[nH]c(=O)c2ccccc12 | i
COc1cc(C(=O)Nc2cccc(-c3nc4ncccc4o3)c2)cc(OC)c1OC | i
Cc1c(NC(=O)CN2C(=O)c3ccccc3S2(=O)=O)c(=O)n(-c2ccccc2)n1C | i
O=C(Cn1cc(C(=O)c2ccccc2F)c2ccccc21)Nc1cccc(C(F)(F)F)c1 | i
C[C@@H]1CN([C@H](C)CO)C(=O)c2cc(C3=CCCC3)cnc2O[C@@H]1CN(C)C | i
COC(=O)c1ccc(CSc2nnc(-c3cccc(Br)c3)o2)o1 | i
Cc1ccccc1OCC(=O)NC(=S)Nc1ccccc1-c1nc2ccccc2s1 | i
C[C@@H]1CN([C@@H](C)CO)C(=O)c2cc(C#CC(C)(C)O)cnc2O[C@@H]1CN(C)Cc1cccc(F)c1 | i
COc1ccc(CCNc2nc(N3CCOCC3)nc(N3CCOCC3)n2)cc1OC | i
O=C(N[C@H]1C=C[C@H](CC(=O)N2CCOCC2)O[C@H]1CO)c1cccc(F)c1 | i
Cc1c(Cl)cccc1NC(=O)CN(c1ccc(F)cc1)S(C)(=O)=O | i
C/C=C/[C@H](CCn1cc(CCO)nn1)[Si](C)(C)c1ccc(OC)cc1 | i
COc1ccc(N(CC(=O)Nc2cccc(SC)c2)S(C)(=O)=O)cc1Cl | i
C[C@H]1CN([C@@H](C)CO)C(=O)c2cc(C3=CCCC3)cnc2O[C@@H]1CN(C)Cc1ccccc1F | i
Cc1ccc(-c2cnc3c(c2)C(=O)N([C@H](C)CO)C[C@H](C)[C@H](CN(C)C)O3)cc1 | i
CCCN(C)C[C@@H]1Oc2cc(C#Cc3ccccc3)ccc2S(=O)(=O)N([C@@H](C)CO)C[C@@H]1C | i
C[C@@H]1CN([C@@H](C)CO)S(=O)(=O)c2ccc(/C=C/c3ccccc3)cc2O[C@H]1CN(C)C(=O)CN1CCOCC1 | i
COc1ccc(OC)c(S(=O)(=O)N(C)CC(=O)O)c1 | i
NC(=O)C1CCN(C(=O)CSc2ccccn2)CC1 | i
CCN(CC)c1ccc(CNc2ccc3c(c2)ncn3C(C)(C)C)cc1 | i
Cc1ccc(C)c(NC(=O)CSc2n[nH]c(-c3ccncc3)n2)c1 | i
C[C@H]1CN([C@@H](C)CO)C(=O)c2ccccc2-c2ccccc2CO[C@@H]1CN(C)C(=O)Cc1ccccc1 | i
O=C(CSc1nnc(-c2ccncc2)n1-c1ccc(Cl)cc1)Nc1ccc(F)cc1F | i
COc1ccc(NC(=O)Cc2nc(-c3cc4ccccc4oc3=O)cs2)cc1 | i
C[C@H](CO)N1C[C@H](C)[C@H](CN(C)C(=O)CC2CC2)Oc2ncc(-c3ccc(C#N)cc3)cc2C1=O | i
Nc1nc2ccc(OC(F)(F)F)cc2s1 | i
Cc1cccc(-c2nnc(SCC(=O)Nc3cc(C(F)(F)F)cc(C(F)(F)F)c3)n2C)c1 | i
Brc1cccc(CNc2nc3ccccc3n2CCN2CCOCC2)c1 | i

In a second layout: entries from further up
CCN(CC)c1ccc(CNc2ccc3c(c2)ncn3C(C)(C)C)cc1
  ID4 binder: i

Brc1cccc(CNc2nc3ccccc3n2CCN2CCOCC2)c1
  ID4 binder: i

NC(=O)C1CCN(C(=O)CSc2ccccn2)CC1
  ID4 binder: i

Cc1ccc(C)c(NC(=O)CSc2n[nH]c(-c3ccncc3)n2)c1
  ID4 binder: i

More compounds follow.
SMILES | ID4 binder
Cc1nc(N)sc1-c1nnc(SCC(=O)Nc2ccccc2C(F)(F)F)n1C | i
COC(=O)c1c(C)nn(C(=O)c2ccc(C)cc2)c1-c1cc(C)on1 | i
C[C@@H]1CN([C@H](C)CO)C(=O)c2cc(NC(=O)C3CC3)ccc2O[C@@H]1CN(C)Cc1ccccc1 | i
N#Cc1c(NC(=O)Cn2ccc([N+](=O)[O-])n2)sc2c1CCC2 | i
O=C(O)c1cc(N(Cc2ccccc2O)Cc2cc(O)ccc2O)ccc1O | i
CC(=O)c1cccc(N(CC(=O)Nc2ccc(Br)cc2F)S(C)(=O)=O)c1 | i
CC(C(=O)Nc1ccc(F)c(F)c1)N(c1ccc(Oc2ccccc2)cc1)S(C)(=O)=O (stereo not drawn) | i
Cn1c(SCC(=O)Nc2cc(C(F)(F)F)ccc2Cl)nnc1-c1ccc(Br)cc1 | i
O=C(C[C@@H]1C=C[C@@H](NC(=O)C2CC2)[C@H](CO)O1)NCC1CC1 | i
COc1ccc([N+](=O)[O-])cc1NC(=O)CN(c1ccccc1Cl)S(C)(=O)=O | i
C[C@H]1CN([C@@H](C)CO)C(=O)c2cc(/C=C/c3ccccc3)cnc2O[C@@H]1CN(C)Cc1cccnc1 | i
C[C@H](CO)N1C[C@H](C)[C@@H](CN(C)CC2CCOCC2)Oc2ncc(Br)cc2C1=O | i
N#C[C@H]1[C@@H](c2ccc(C#CC3CCCCC3)cc2)[C@@H](CO)N1C(=O)c1cccc(F)c1 | i
CCc1c(O)nc(SCC(N)=O)n(-c2ccccc2F)c1=O | i
CNC[C@H]1Oc2cc(C#CCC3CCCC3)ccc2S(=O)(=O)N([C@H](C)CO)C[C@@H]1C | i
Cn1c(SCCCN2C(=O)c3cccc4cccc(c34)C2=O)nnc1-c1ccncc1 | i
O=C(COc1ccccc1[N+](=O)[O-])Nc1ccc2oc(-c3ccc(Br)cc3)nc2c1 | i
C[C@@H]1CN([C@@H](C)CO)C(=O)CCCn2cc(nn2)CO[C@H]1CN(C)Cc1cccc(C(F)(F)F)c1 | i
COc1ccccc1NC(=O)N[C@@H]1C=C[C@@H](CC(=O)N[C@H](C)c2ccccc2)O[C@H]1CO | i
O=C(C[C@H]1C=C[C@@H](NC(=O)CCN2CCCCC2)[C@@H](CO)O1)Nc1ccc(-c2ccccc2)cc1 | i
Cc1ccc(Nc2nc(N)nc(CN3CCN(C(c4ccccc4)c4ccccc4)CC3)n2)cc1 | i
COC(=O)c1sc(C(C)(C)C)cc1CS(=O)(=O)c1cc(C)c(Cl)cc1C | i
O=C(Cc1ccccc1)N[C@H]1C=C[C@H](CC(=O)N2CCCCC2)O[C@H]1CO | i
Cc1ccccc1-c1ccc2c(c1)O[C@@H](CN(C)C)[C@H](C)CN([C@H](C)CO)S2(=O)=O | i
O=C(Nc1ccc(F)cc1)c1ccccc1S(=O)(=O)c1ccccc1[N+](=O)[O-] | i
COc1ccc(Cl)cc1N(CC(=O)Nc1cccc(Cl)c1C)S(C)(=O)=O | i
Cc1cccc(-c2nnc(SCC(=O)Nc3cc(F)ccc3C)n2-c2ccccc2)c1 | i
COc1ccc(N(C(C)C(=O)Nc2ccc(Cl)cc2)S(C)(=O)=O)cc1 (stereo not drawn) | i
COc1ccc(N(CC(=O)Nc2ccccc2F)S(C)(=O)=O)cc1Cl | i
O=C(COc1ccccc1Cl)NCc1ccco1 | i
Cc1ccc(OCC(=O)Nc2cccc(-c3nc4cc(Cl)ccc4o3)c2C)c(C)c1 | i
C[C@H]1CN([C@@H](C)CO)C(=O)c2ccccc2-c2ccccc2CO[C@H]1CN(C)Cc1ccc2c(c1)OCCN2C | i
O=C(Nc1cccs1)Nc1nnc(C2CC2)s1 | i
CCOC(=O)c1c(CSc2cccc3cccnc23)nc2c3ccccc3ccn12 | i
COCC#Cc1cnc2c(c1)C(=O)N([C@H](C)CO)C[C@@H](C)[C@@H](CN(C)Cc1ccccc1F)O2 | i
Cn1c(=O)[nH]c(=O)c2c1ncn2CC(=O)NCc1ccco1 | i
Cc1ccc(NC(=O)CSC2CC(=O)N(c3ccc(F)cc3)C2=O)cc1Cl (stereo not drawn) | i
CC(C)c1ncc2c(n1)-c1cc(Cl)ccc1SC2 | i
O=C(N[C@H]1C=C[C@@H](CC(=O)N2CCCCC2)O[C@@H]1CO)c1cccc(F)c1 | i
Cc1cccc(OCC(=O)Nc2cccc(-c3nc4ccccc4s3)c2)c1 | i
Cc1ccc(NC(=O)CC2NCCNC2=O)cc1C (stereo not drawn) | i
Cn1c(=O)c2c(ncn2CC(=O)NCc2ccccc2Cl)n(C)c1=O | i
C[C@@H]1CN([C@@H](C)CO)C(=O)c2cc(/C=C/c3ccccc3)cnc2O[C@H]1CN(C)C(=O)C1CCC1 | i
C[C@H](CO)N1C[C@H](C)[C@@H](CN(C)Cc2ccccc2)Oc2cc(C3=CCCCC3)ccc2S1(=O)=O | i
Cc1ccccc1-c1ccc2c(c1)O[C@H](CN(C)CC1CC1)[C@H](C)CN([C@@H](C)CO)S2(=O)=O | i
O=C(O)CC(C(=O)Nc1ccc(Cl)cc1)N1CCCCC1 (stereo not drawn) | i
Cc1ccc(-c2nc3cc(NC(=O)COc4ccccc4[N+](=O)[O-])ccc3o2)cc1 | i
NC(=O)C1(N2CCCCC2)CCN(CC(=O)Nc2ccc(Oc3ccccc3)cc2)CC1 | i
O=C(CS(=O)c1ccccc1[N+](=O)[O-])Oc1ccc(Cl)cc1Cl (stereo not drawn) | i
Cc1ccccc1-c1cnc2c(c1)C(=O)N([C@@H](C)CO)C[C@@H](C)[C@@H](CN(C)Cc1ccncc1)O2 | i
Further records follow.
SMILES | ID4 binder
O=C(CSc1nc(O)cc(=O)[nH]1)Nc1ccccc1 | i
COc1ccc(N(CC(=O)Nc2ccc(I)cc2)S(C)(=O)=O)c(OC)c1 | i
COc1ccccc1-c1noc(CCC(=O)Nc2ccccc2Cl)n1 | i
C=CCn1c(SCC(N)=O)nnc1-c1cc(Br)ccc1O | i
O=C(O)C1C2C=CC(O2)C1C(=O)Nc1ccc(S(=O)(=O)N2CCc3ccccc32)cc1 (stereo not drawn) | +
COC(=O)Cn1c2c(c3cc(C)ccc31)CCCC2 | i
O=C(C[C@H]1CC[C@H](NC(=O)Nc2cc(F)ccc2F)[C@@H](CO)O1)NCc1ccncn1 | i
COCC(=O)Nc1ccc2c(c1)[C@H]1C[C@@H](CC(=O)NCc3ccc4c(c3)OCO4)O[C@H](CO)[C@H]1O2 | i
CNC(=O)CN(C#N)c1nc(N(C)C)nc(N(C)C)n1 | i
Cc1nnc(SCC(=O)Nc2cc(Cl)c(Cl)cc2Cl)s1 | i
COC(=O)C[C@@H]1C=C[C@H](NS(=O)(=O)c2ccccc2F)[C@@H](CO)O1 | i
Cc1cccc(CN(C)C[C@@H]2OCc3cn(nn3)CCCC(=O)N([C@@H](C)CO)C[C@H]2C)c1 | i
CCCN1C[C@@H](C)[C@H](OC)CN(C)C(=O)c2ccc(NC(=O)c3cccc(F)c3)cc2OC[C@H]1C | i
O=C(CC1(O)C(=O)Nc2ccc(I)cc21)c1ccccn1 (stereo not drawn) | i
COc1ccc(N(CC(=O)Nc2ccc(Br)c(Cl)c2)S(C)(=O)=O)cc1Cl | i

Screening results from PubChem BioAssay.
